hNpr1 antagonist = Natriuretic polypeptide receptor (hNpr1) antagonism - Primary qHTS; Atrial natriuretic peptide receptor 1 (Homo sapiens), P16066; HEK293 hNpr1 GloSensor cGMP, ANP-stimulated luminescence; Potency, µM (highest dose often 46.3 µM), without a hit: top-dose activity change, negative = inhibition, usual class: inhibitors; 76,000 compounds, 1.6% hits; AID 1347048, 2019; active = well fitted inhibition curve with a large enough effect; inconclusive = small, poorly fitted or top-dose-only effect; inactive = no such curve, though single readings can be large or run the other way;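 also: nearly all actives have a fitted effect of over 60% in size; nearly all hits also lower the signal before the agonist is added; a reference antagonist and vehicle were the controls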
Target sequence (P16066 whole entry, looked up): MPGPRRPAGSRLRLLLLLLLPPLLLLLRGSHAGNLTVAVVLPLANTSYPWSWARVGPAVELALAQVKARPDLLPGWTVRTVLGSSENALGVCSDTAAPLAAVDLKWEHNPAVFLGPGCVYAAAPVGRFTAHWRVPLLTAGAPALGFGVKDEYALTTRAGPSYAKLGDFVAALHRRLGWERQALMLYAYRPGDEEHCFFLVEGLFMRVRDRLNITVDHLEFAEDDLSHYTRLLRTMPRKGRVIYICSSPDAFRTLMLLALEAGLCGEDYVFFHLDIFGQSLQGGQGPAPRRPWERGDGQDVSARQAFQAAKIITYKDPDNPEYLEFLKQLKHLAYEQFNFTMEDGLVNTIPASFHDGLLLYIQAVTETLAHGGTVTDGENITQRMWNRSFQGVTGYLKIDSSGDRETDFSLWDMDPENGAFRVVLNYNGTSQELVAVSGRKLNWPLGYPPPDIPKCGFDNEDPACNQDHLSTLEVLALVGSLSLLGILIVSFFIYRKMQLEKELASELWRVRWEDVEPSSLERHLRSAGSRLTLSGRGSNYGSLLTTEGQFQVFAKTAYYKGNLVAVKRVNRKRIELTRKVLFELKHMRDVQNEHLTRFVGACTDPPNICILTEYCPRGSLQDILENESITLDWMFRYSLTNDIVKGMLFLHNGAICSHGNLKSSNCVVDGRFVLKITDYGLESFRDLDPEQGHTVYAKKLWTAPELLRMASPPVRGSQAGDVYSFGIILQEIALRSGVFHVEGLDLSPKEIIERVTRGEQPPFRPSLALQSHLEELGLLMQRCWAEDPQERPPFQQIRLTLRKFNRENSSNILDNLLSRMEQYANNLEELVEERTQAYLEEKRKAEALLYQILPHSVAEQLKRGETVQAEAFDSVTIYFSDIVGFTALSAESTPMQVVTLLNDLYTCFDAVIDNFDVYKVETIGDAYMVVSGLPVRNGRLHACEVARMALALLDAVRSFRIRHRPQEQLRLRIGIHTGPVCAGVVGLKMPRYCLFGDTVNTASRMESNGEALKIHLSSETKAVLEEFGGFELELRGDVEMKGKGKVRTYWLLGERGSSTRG
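HEK293 cells stably expressing human Npr1 and cGMP GloSensor pGS-40F, loaded 2 h with 2% GloSensor reagent, given compound 30 min at room temperature. Luminescence read before and 20 min after 0.1 nM hNppA.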
* hit, by the source's call; ? = inconclusive; [ ] = dose if it differs, or a comment. % is scaled to controls: 0 for no effect and ±100 for the full control effect; potency is read from the fitted curve at half-maximal effect. Not all compounds are listed; the hit share may differ from the screen's.

SMILES	hNpr1 antagonist
CCCS(=O)(=O)NC[C@H]1C[C@@H]2CCN1C[C@@H]2c1cc(-c2cccs2)nn1C	2%[70.6 µM]
COc1ccc(-n2cc(C3=CCN(CCN4CCOCC4)CC3)cn2)cc1	?
O=C(Nc1ccc(Cl)cc1)N1C[C@@H]2C[C@H](C1)c1c(-c3ccccc3F)ccc(=O)n1C2	-1%
COc1ccc2c(c1)C1(CCN(C(=O)c3ccc(C)cc3)C1)C(=O)N2 (configuration not stated)	2%
CN1CCN(C(=O)CCc2ccncc2)CC12CCNCC2	5%
COCc1nnc2n1CCC(NC(=O)c1nn(C)c3ccccc13)CC2 (configuration not stated)	-17%
Cc1nonc1CC(=O)N1C[C@H](O)[C@@H](N2CCC(O)CC2)C1	-1%
Cc1nnc2n1CCC(NC(=O)c1nn(C)c3ccccc13)CC2 (configuration not stated)	8%
CN(Cc1ccccc1)Cc1cn(C[C@H]2CC3CCN2C[C@@H]3C(=O)NC2CC2)nn1 (some centres not stated)	-6%[70.6 µM]
O=C1NCCCCCCN(Cc2cccnc2)[C@H]2CCC[C@@H]12	1%
COc1cc2c(cc1OCc1ccncc1)NC(=O)C21CCN(Cc2ccccn2)CC1	-3%[70.6 µM]
C#C[C@H]1CN2CC[C@H]1C[C@@H]2CNC(=O)Nc1ccc(Oc2ccccc2)cc1	-1%[70.6 µM]
Cn1nc(-c2ccccc2)cc1[C@H]1CN2CC[C@H]1C[C@@H]2CNC(=O)NCc1ccccc1	-2%[70.6 µM]
O=C(NC[C@H]1C[C@@H]2CCN1C[C@@H]2CN1CCC(Cc2ccccc2)CC1)c1ccco1	-8%[70.6 µM]
CC(C)NC(=O)OC[C@H]1C[C@@H]2CCN1C[C@@H]2c1cc(C2CCCCC2)nn1C	-1%[70.6 µM]
CNCc1cn(C[C@H]2CC3CCN2C[C@@H]3C(=O)Nc2ccccc2)nn1 (some centres not stated)	3%[70.6 µM]
COc1cc2c(cc1OCc1ccncc1)NC(=O)C21CCN(CC2CC2)CC1	6%[70.6 µM]
COCCN1C(=O)CO[C@H]2CN(C(C)C)C[C@H]21	6%[70.6 µM]
Cn1nc(C(=O)NCC2(C)CCOCC2)c2ccccc21	1%
Cc1nc(-c2ccc(N(C)C)cc2)cc([C@H]2CN3CC[C@H]2C[C@@H]3COC(=O)Nc2ccc(C(C)C)cc2)n1	?
C=C[C@H]1CN2CC[C@H]1C[C@@H]2CNC(=O)N1CCOCC1	2%[70.6 µM]
O=C(c1ccccc1)N1C[C@@H]2C[C@H](C1)c1ccc(-c3cccc(C(F)(F)F)c3)c(=O)n1C2	-1%
COc1cc2c(cc1CCc1ccccc1)N(C(=O)Cc1ccc3c(c1)OCO3)CC21CCN(C(C)=O)CC1	-17%
Cc1ncc2c(n1)C[C@@H]1CC[C@H]2N1C(=O)Nc1ccccc1	5%
COc1cc2c(cc1OCc1ccncc1)NC(=O)C21CCN(Cc2cccc(O)c2)CC1	-20%
Cn1nc(-c2ccc3ccccc3c2)cc1[C@H]1CN2CC[C@H]1C[C@@H]2CNC(=O)COc1ccccc1	3%
C#C[C@H]1CN2CC[C@H]1C[C@@H]2CNC(=O)c1ccc(C#N)cc1	5%[70.6 µM]
COc1cc2c(cc1OCC1CC1)NC(=O)C21CCN(c2nccs2)CC1	-14%[70.6 µM]
Cc1nc(-c2ccc(C(F)(F)F)cc2)cc([C@H]2CN3CC[C@H]2C[C@@H]3CNC(=O)c2ccco2)n1	-3%
C#C[C@H]1CN2CC[C@H]1C[C@@H]2COC(=O)Nc1cc(OC)cc(OC)c1	5%[70.6 µM]
O=C1N(Cc2ccccn2)C[C@H]2CN(C3CCC3)CCN12	6%[70.6 µM]
CN(C)CC(=O)Nc1ccc2n(c1=O)C[C@H]1C[C@@H]2CN(C(=O)c2cccnc2)C1	0%[70.6 µM]
CN1CC2(C1)C(=O)N(C)C(=O)[C@@H]1C[C@@H](O)CN12	2%[70.6 µM]
O=C(Cc1c(F)cccc1Cl)N1CCN(Cc2ccccc2)CC(O)C1 (configuration not stated)	1%
CC(=O)N1C[C@@H]2C[C@H](C1)c1ccc(NC(=O)C3CCCCC3)c(=O)n1C2	1%[70.6 µM]
Cc1ccccc1CC(=O)N1CCC2(CC1)c1nccn1-c1ccccc1CN2C	-3%
COc1ccc(S(=O)(=O)NC[C@H]2C[C@@H]3CCN2C[C@@H]3CN2CCN(c3ccccn3)CC2)cc1	1%
C=C[C@H]1CN2CC[C@H]1C[C@@H]2CNC(=O)Nc1ccc(Oc2ccccc2)cc1	4%[70.6 µM]
Cc1ccc(C(=O)NC[C@H]2C[C@@H]3CCN2C[C@@H]3c2cc(-c3ccccc3Br)nc(C)n2)cc1	-5%
COc1ccc(S(=O)(=O)NC[C@H]2C[C@@H]3CCN2C[C@@H]3CN(C)c2ccccc2)cc1	1%[70.6 µM]
O=C1NCCN2CC3(CCN(S(=O)(=O)c4cccnc4)CC3)CC12 (configuration not stated)	-1%
O=C(NCc1ccc(F)cc1)[C@H]1CN2CCC1C[C@@H]2Cn1cc(COc2ccccc2)nn1 (some centres not stated)	1%
COc1ccccc1C(=O)N1[C@H]2CC[C@@H]1c1cnc(C)nc1C2	2%
CC(C)NC(=O)[C@H]1CN2CCC1C[C@@H]2Cn1cc(CCO)nn1 (some centres not stated)	1%[70.6 µM]
Cc1cccc(C(=O)N2[C@H]3CC[C@@H]2c2cnc(C)nc2C3)c1	-5%
Cc1ncc2c(n1)C[C@@H]1CC[C@H]2N1C(=O)Cc1ccccc1	4%
COc1ccccc1CNC(=O)[C@H]1CN2CCC1C[C@@H]2Cn1cc(C(C)(C)O)nn1 (some centres not stated)	3%[70.6 µM]
CN1CCN(C(=O)Cc2c[nH]c3ncc(-c4ccc5c(c4)OCO5)cc23)CC1	-1%[70.6 µM]
CN1Cc2ccccc2-n2ccnc2C12CCN(C(=O)c1ccc(Br)o1)CC2	-2%
COc1ccc(CCC(=O)N2CCC3(CC2)NCc2ccccc2-n2ccnc23)cc1	-14%
CN(C)c1ccc(C(=O)NC[C@H]2C[C@@H]3CCN2C[C@@H]3c2cc(C3CCCCC3)nn2C)cc1	2%
CC(=O)Nc1ccc(-c2ccc(=O)n3c2[C@@H]2C[C@@H](CN(C(=O)c4ccccc4)C2)C3)cc1	2%[70.6 µM]
Fc1ccc(-c2ncc3c(n2)C[C@@H]2CC[C@H]3N2)cc1	12%
Cn1nc(-c2ccc(F)cc2)cc1[C@H]1CN2CC[C@H]1C[C@@H]2COC(=O)Nc1cccc(C(F)(F)F)c1	1%
Cc1[nH]cnc1CN1C[C@H](c2ccc3c(c2)OCO3)[C@@H]2[C@H]1C1CCN2CC1	8%
CN1CCN(C[C@H]2CN3CC[C@H]2C[C@@H]3CNC(=O)Nc2ccccc2)CC1	4%[70.6 µM]
O=C(O)C1CC2(CCN(C(=O)CCc3ccncc3)CC2)CN1 (configuration not stated)	3%
CSc1cccc(NC(=O)NC[C@H]2C[C@@H]3CCN2C[C@@H]3CN2CCOCC2)c1	4%[70.6 µM]
CC[C@H]1CN2CC[C@H]1C[C@@H]2CNC(=O)c1ccc(N(C)C)cc1	-1%[70.6 µM]
O=C1NC2(CCCN(Cc3cccnc3)C2)COc2ccccc21 (configuration not stated)	-23%[70.6 µM]

Going on with the list:
SMILES	hNpr1 antagonist
O=C(NCCc1cnc2ccccn12)C1CC2(CCNCC2)CN1 (configuration not stated)	1%
COc1cccc([C@@H]2CCN(Cc3cccc4nsnc34)C[C@H]2O)c1	-1%
COc1ccc(-c2cn(C[C@H]3CC4CCN3C[C@@H]4C(=O)N3CCCC3)nn2)cc1 (some centres not stated)	5%[70.6 µM]
C=CCOc1c(Cl)cc(CNC(C)Cn2cccn2)cc1OC (configuration not stated)	-3%
CCC1(N2CCN(C(=O)COc3cccc(Cl)c3)CC2)CCN(S(C)(=O)=O)C1 (configuration not stated)	-13%
Cn1nc(-c2ccc3ccccc3c2)cc1[C@H]1CN2CC[C@H]1C[C@@H]2CNC(=O)N1CCOCC1	0%
Cc1ccc(C(=O)N2[C@H]3CC[C@@H]2c2cnc(-c4ccccc4)nc2C3)c(C)c1	-15%
COc1ccccc1NC(=O)N1C[C@@H]2C[C@H](C1)c1c(-c3ccc(Cl)cc3)ccc(=O)n1C2	-7%
CC(C)NC(=O)OC[C@H]1C[C@@H]2CCN1C[C@@H]2c1cc(-c2ccc3ccccc3c2)nn1C	-25%[70.6 µM]
CN1CCN(C(=O)Cc2c[nH]c3ncc(-c4cccc(O)c4)cc23)CC1	4%[70.6 µM]
COc1cc2c(cc1OCC1CC1)NC(=O)C21CCN(c2nc(C)cc(C)n2)CC1	5%[70.6 µM]
COc1cc2c(cc1OCc1ccccc1)NC(=O)C21CCN(CCC(C)C)CC1	-15%[70.6 µM]
CC(C)(C)c1cn(C[C@H]2CC3CCN2C[C@@H]3C(=O)Nc2nccs2)nn1 (some centres not stated)	2%[70.6 µM]
COc1ccc(-c2cc([C@H]3CN4CC[C@H]3C[C@@H]4CNC(=O)C3CCC3)n(C)n2)cc1OC	0%[70.6 µM]
C1CC(NC2CCOCC2)CCN1	-2%
CSc1ccc(-c2ccc(=O)n3c2[C@@H]2C[C@@H](CN(S(C)(=O)=O)C2)C3)cc1	5%[70.6 µM]
CC(C)NC(=O)NC[C@H]1C[C@@H]2CCN1C[C@@H]2c1cc(-c2ccc3ccccc3c2)nn1C	2%[70.6 µM]
O=C(c1ccccc1)N1C[C@@H]2C[C@H](C1)c1ccc(-c3ccc(Cl)cc3)c(=O)n1C2	-15%[70.6 µM]
N#CC1(c2ccccc2)CCN(C(=O)c2cn(CC3CCCNC3)nn2)CC1 (configuration not stated)	-1%
Cc1ccc(S(=O)(=O)NC[C@H]2C[C@@H]3CCN2C[C@@H]3CN(C)CCc2ccccn2)cc1	-3%

Laid out differently: entries from further up.
SMILES | hNpr1 antagonist
O=C(Nc1ccc(Cl)cc1)N1C[C@@H]2C[C@H](C1)c1c(-c3ccccc3F)ccc(=O)n1C2 | -1%
COc1ccc2c(c1)C1(CCN(C(=O)c3ccc(C)cc3)C1)C(=O)N2 (configuration not stated) | 2%
CN1CCN(C(=O)CCc2ccncc2)CC12CCNCC2 | 5%
COCc1nnc2n1CCC(NC(=O)c1nn(C)c3ccccc13)CC2 (configuration not stated) | -17%

Seven entries drawn at random from those above, as already listed:
SMILES	hNpr1 antagonist
Cc1ccc(S(=O)(=O)NC[C@H]2C[C@@H]3CCN2C[C@@H]3CN(C)CCc2ccccn2)cc1	-3%
Cn1nc(-c2ccc3ccccc3c2)cc1[C@H]1CN2CC[C@H]1C[C@@H]2CNC(=O)N1CCOCC1	0%
O=C(c1ccccc1)N1C[C@@H]2C[C@H](C1)c1ccc(-c3ccc(Cl)cc3)c(=O)n1C2	-15%[70.6 µM]
CC(C)NC(=O)NC[C@H]1C[C@@H]2CCN1C[C@@H]2c1cc(-c2ccc3ccccc3c2)nn1C	2%[70.6 µM]
Cc1ccc(C(=O)N2[C@H]3CC[C@@H]2c2cnc(-c4ccccc4)nc2C3)c(C)c1	-15%
COc1cccc([C@@H]2CCN(Cc3cccc4nsnc34)C[C@H]2O)c1	-1%
C1CC(NC2CCOCC2)CCN1	-2%

(listing goes on)
SMILES	hNpr1 antagonist
COc1ccc(C(=O)NC[C@H]2C[C@@H]3CCN2C[C@@H]3c2cc(C3CCCCC3)nn2C)cc1	2%
CC(=O)Nc1ccc(S(=O)(=O)NC[C@H]2C[C@@H]3CCN2C[C@@H]3c2cc(-c3ccc(N(C)C)cc3)nc(C)n2)cc1	-2%
O=C(Nc1ccc(=O)n2c1[C@@H]1C[C@@H](CN(C(=O)Nc3ccc(F)cc3)C1)C2)c1ccco1	7%
Cc1nc(-c2cccs2)cc([C@H]2CN3CC[C@H]2C[C@@H]3CNS(C)(=O)=O)n1	1%[70.6 µM]
CC(C)CN1Cc2ccccc2-n2ccnc2C12CCN(C(=O)c1ccoc1)CC2	-21%
CC[C@H]1CN2CC[C@H]1C[C@@H]2CNCc1cc2ccccc2o1	6%[70.6 µM]
Cc1ccc(CN2CC[C@H]3CC[C@@H](C2)N3)s1	0%
COc1ccc(-c2cc([C@H]3CN4CC[C@H]3C[C@@H]4CNC(=O)Nc3ccccc3)n(C)n2)cc1OC	-1%
COc1cc2c(cc1OCc1ccccc1)NC(=O)C21CCN(Cc2cccc(O)c2)CC1	1%
CN(CCc1ccccn1)C[C@H]1CN2CC[C@H]1C[C@@H]2CNS(=O)(=O)c1ccccc1	-2%[70.6 µM]
Cc1nc(-c2ccccc2Br)cc([C@H]2CN3CC[C@H]2C[C@@H]3CNC(=O)Nc2ccc(Cl)cc2)n1	-6%
O=C(NCc1ccccc1)[C@H]1CN2CC[C@H]1C[C@@H]2Cn1cc(CO)nn1	2%[70.6 µM]
CCC(CC)C(=O)N1CCC2(CC1)NCc1ccccc1-n1ccnc12	2%
COCC1CN(C2CCC2)CC12CCN(Cc1cccnc1)CC2 (configuration not stated)	0%
CC(C)NC(=O)OC[C@H]1C[C@@H]2CCN1C[C@@H]2c1cc(C2CCCC2)nc(-c2ccncc2)n1	-23%
O=C(O)c1cccc(C(=O)N2C[C@@H]3C[C@H](C2)c2ccc(NC(=O)C4CC4)c(=O)n2C3)c1	-2%[70.6 µM]
COc1ccc2c(c1)C1(CCN(S(=O)(=O)c3ccc(Cl)cc3)C1)C(=O)N2C (configuration not stated)	-14%
O=[S+]1([O-])NC2(CCN(Cc3ccncc3)C2)CNc2ccccc21 (configuration not stated)	17%
